Env fusion inh – inhibitors of HIV-1 Env-driven cell-cell fusion, primary screen, HeLa-JRFL effector, CEM21 target cells, luciferase; inhibition, % at 12.3 µM; 360,000 compounds, 1.1% hits; AID 651610, 2012;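 active = mean replicate inhibition score of at least 50 and every replicate individually at or above 50; inconclusive = only one of the two criteria met; inactive = mean below 50 and not all replicates reaching 50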;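 note: 0% = plate neutral controls and 100% = maraviroc near 300 nM; one replicate is shown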
CSC inhib – cancer stem cell viability inhibitors, primary screen, luminescence; cancer stem cell-like cells viability; inhibition, % at 7.5 µM; 300,000 compounds, 1.1% hits; AID 2717, 2010;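 active = mean at 75% or more and at least half the replicates too; inconclusive = mean and replicates disagree; tested in HMLE shEcad cells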;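 note: 0% = median of negative and 100% = median of positive control wells; the first replicate is given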
MT1-MMP act inh – blockers of MT1-MMP proenzyme processing, primary screen, HT1080 RFP-PRO-GFP cells, GFP/RFP fluorescence | 360,000 compounds, 0.061% hits | GFP/RFP ratio fluorescence, overnight; percent of plate control window, DMSO zero | Matrix metalloproteinase-14 (Homo sapiens), P50281 | GFP/RFP ratio change, % at 20 µM;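 active = GFP/RFP ratio change of at least 30% with cell ATP level not reduced by more than half and red fluorescence within 50% of control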; note: strong numbers were not always called active
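Assay system: HT1080 RFP-PRO-GFP cells. Benchmarks: DMSO vehicle wells and RFP-L50D-GFP reporter cell wells. Times: overnight cell settling, then overnight compound exposure, 37 °C, 5% CO2. Compound: 20 µM single dose, 1% DMSO. Read-out basis: GFP/RFP fluorescence ratio.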
UUG fidelity – modulators of yeast start codon fidelity, primary screen, whole organism, S. cerevisiae, single point, plate reader | 350,000 compounds, 0.13% hits | AID 602363, 2012 | activity score, % at 18.7 µM | S. cerevisiae UUG-firefly luciferase reporter, luminescence/redox ratio;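 active = replicate mean at a twofold rise or more, about +100% in these data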;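 note: firefly luciferase made from a UUG start codon reports start codon fidelity; reporter light over untreated wells divided by growth signal over untreated wells; some hits fall short of that in this replicate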
eIF4H FP inh – human eIF4H binding inhibitors, primary screen, translation initiation inhibitor project, biochemical, uHTS, fluorescence polarization | Eukaryotic translation initiation factor 4H (Homo sapiens), Q15056 | eIF4H fluorescence polarization binding assay | inhibition, % at 35 µM | 290,000 compounds, 0.94% hits;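 active = 50% or more with normal probe brightness, or confirmed in later tests; inconclusive = above 50% with abnormal brightness, or retests that disagree; inactive = below 50% or failed in later tests; about a fifth of its hits are not listed in these tables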;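 note: calls also rest on retests at 20 µM and on dose response follow-up; 0% = protein and probe with vehicle and 100% = probe without protein; strong numbers were not always called active; many hits fall short of the cut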
Rce1 inh – yeast Rce1p protease inhibitors, primary screen, biochemical, fluorescence, cell-free homogeneous; calls only; yeast membranes, quenched prenylated peptide cleavage fluorescence; 290,000 compounds, 0.27% hits; CAAX prenyl protease 2 (Saccharomyces cerevisiae (strain ATCC 204508 / S288c)), Q03530;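 active = fall in fluorescence gain of 50% or more versus controls, with final raw signal at or below 3038400; inconclusive = same 50% fall but final raw signal above 3038400; inactive = fall in fluorescence gain under 50%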;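 note: plate controls were neutral control wells for no effect and wells lacking membranes for full effect; tested at 10 µM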
Target sequence (Q03530 whole entry, looked up): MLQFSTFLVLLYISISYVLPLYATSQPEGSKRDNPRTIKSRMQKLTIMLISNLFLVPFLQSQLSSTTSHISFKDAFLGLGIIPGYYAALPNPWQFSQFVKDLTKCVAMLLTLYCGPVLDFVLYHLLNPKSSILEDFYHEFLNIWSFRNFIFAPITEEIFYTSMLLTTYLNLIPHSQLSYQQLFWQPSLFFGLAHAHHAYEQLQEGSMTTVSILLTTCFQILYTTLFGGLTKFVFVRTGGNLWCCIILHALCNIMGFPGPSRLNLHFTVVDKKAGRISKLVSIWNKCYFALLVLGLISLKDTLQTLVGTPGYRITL
PABP FP inh – PABP poly(A) RNA binding inhibitors, primary screen, biochemical, fluorescence polarization, uHTS; Polyadenylate-binding protein 1 (Homo sapiens), P11940; inhibition, % at 35 µM; 290,000 compounds, 1% hits; AID 2014, 2009;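 active = 50% or more with normal probe brightness, or confirmed in later tests; inconclusive = above 50% with abnormal brightness, or retests that disagree; inactive = below 50% or failed in later tests; about a fifth of its hits are not listed in these tables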;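 note: calls also rest on retests at 20 µM and on dose response follow-up; controls were probe without protein and protein plus probe with vehicle; some compounds called inactive have numbers as strong as hits; many hits fall short of the cut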
Target sequence (P11940 whole entry, looked up): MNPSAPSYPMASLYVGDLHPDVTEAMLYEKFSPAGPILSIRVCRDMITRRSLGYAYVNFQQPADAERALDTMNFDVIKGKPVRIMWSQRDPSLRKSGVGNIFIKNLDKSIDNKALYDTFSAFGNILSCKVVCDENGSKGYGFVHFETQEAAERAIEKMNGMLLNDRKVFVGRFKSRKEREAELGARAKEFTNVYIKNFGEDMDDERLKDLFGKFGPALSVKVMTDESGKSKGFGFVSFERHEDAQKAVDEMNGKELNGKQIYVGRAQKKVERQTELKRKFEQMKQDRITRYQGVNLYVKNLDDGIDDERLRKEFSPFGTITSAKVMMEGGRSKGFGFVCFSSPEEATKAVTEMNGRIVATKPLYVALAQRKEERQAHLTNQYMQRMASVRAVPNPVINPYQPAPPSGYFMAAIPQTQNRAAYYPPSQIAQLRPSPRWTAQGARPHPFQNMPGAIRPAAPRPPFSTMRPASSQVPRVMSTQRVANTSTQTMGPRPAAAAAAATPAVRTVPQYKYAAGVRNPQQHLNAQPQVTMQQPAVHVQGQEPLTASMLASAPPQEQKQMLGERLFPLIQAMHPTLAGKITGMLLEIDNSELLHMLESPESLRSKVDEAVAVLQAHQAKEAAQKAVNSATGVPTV
MT1-MMP act inh RFP – further read-out of MT1-MMP act inh, marked with its call; RFP signal change, %; measured here: RFP expression control read;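 0 = vehicle wells; hits needed this value within 50% of zero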
* hit, by the source's call; i = inactive; ? = inconclusive; nt = not tested or not shown; & = joins results of further samples.

SMILES	Env fusion inh	CSC inhib	MT1-MMP act inh	MT1-MMP act inh RFP	UUG fidelity	eIF4H FP inh	Rce1 inh	PABP FP inh
COc1ccc2nc(NC(=O)c3ccccc3F)sc2c1	-337	21	0	-3	-25	4	i	-3
CCCCn1c(N)c(N(CCOC)C(=O)CCNC(=O)c2ccc(Br)cc2)c(=O)[nH]c1=O	14	-5	-5	-2	nt	nt	i	nt
COc1ccccc1CCC(=O)Nc1ccc(OC)c(S(=O)(=O)N2CCCCC2)c1	nt	4	15	3	-31	nt	nt	nt
C=C(c1ccccc1)c1ccccc1N	-10	-15	-1	-1	-5	nt	i	nt
CCC(=O)Nc1ccc(NC(=S)NC(=O)/C=C/c2ccco2)cc1	-3	-6	2	2	-19	11	i	15
Nc1c(C(=O)Nc2nccs2)sc2nc(-c3cccs3)cc(C(F)(F)F)c12	nt	13	-141	10	nt	12	i	24
Cc1ccc(NC(NC(=O)c2cccs2)C(Cl)(Cl)Cl)cc1 (stereo unspecified)	nt	5	4	-7	nt	-5	i	0
CCC(C)(C)NC(=O)C(c1ccccc1)N(C(=O)c1csnn1)C1CC1 (stereo unspecified)	-29	-10	2	5	-16	-3	i	11
COc1ccc([C@@H]2[C@@H]3C(=O)N(C(C)(C)C)C(=O)[C@@H]3[C@]3(C)C(=O)N(c4ccc(C(F)(F)F)cc4)C(=O)N23)cc1	66*	-2	6	-1	7	-1	i	2
Cc1cnc(NC(=O)CC(C)c2ccccc2)s1 (stereo unspecified)	-133	34	-6	-12	-9	-4	i	-6
CN(Cc1ccccc1)C(=O)c1cccc(NC(=O)Cc2ccc(NC(=O)C3CCN(S(=O)(=O)c4cccc([N+](=O)[O-])c4)CC3)cc2)c1	11	nt	1	-8	-12	nt	nt	nt
COc1ccc(-c2nc(CS(=O)(=O)CC(=O)NCc3ccccc3OC)c(C)o2)cc1	5	-11	0	0	-13	3	i	2
COc1ccccc1NC(=O)CCSc1nnc(-c2ccc(O)cc2)o1	-4	-11	-1	-1	nt	4	i	-2
Cc1ccc(CC(=O)Nc2nc3c(s2)CCCC3)cc1	-3	2	0	0	-13	2	i	-4
CCn1cc(C(=O)NCC2CCCO2)c(=O)c2cc(S(=O)(=O)N3CCCCC3)ccc21 (stereo unspecified)	12	-17	4	-1	-15	-4	i	-6
Cc1ccc(-n2nc3c(=O)n(CC(=O)NCc4ccc(C)o4)nc(C)c3c2C)cc1	0	9	10	-7	-23	-6	i	9
O=C(O)c1cccc(-c2ccc3c(c2)OCO3)c1	-3	-7	3	5	-13	-11	i	-9
CCOC(=O)/C(=N\Nc1ccccc1)S(=O)(=O)c1ccccc1	nt	0	-1	-7	-13	-6	i	6
COc1ccc(S(=O)(=O)N2CCCCC2)cc1NC(=O)c1ccc(CS(C)(=O)=O)cc1	5	5	-1	5	-1	nt	nt	nt
Cc1ccc(C(=O)Nc2ccc(OCc3ccccc3)cc2)s1	-19	-1	3	-2	-15	5	i	5
CCCS(=O)(=O)NC(=O)C1(C)CCCN(C(=O)c2cc(-c3ccccc3)cs2)C1 (stereo unspecified)	20	nt	1	1	5	nt	nt	nt
CCCCSc1nnc(-c2ccc(NC(=O)CC)cc2)n1C	27	12	0	4	-12	-4	i	-9
CCOc1cc(C(=S)N2CCCC2)ccc1OC(=O)Cc1ccc(F)cc1	12	-5	-1	3	-29	-5	i	?
O=C1CC(NNc2ccccc2)C(=O)N1c1ccc(N2CCCCC2)cc1 (stereo unspecified)	-13	nt	-1	1	nt	-4	nt	-14
CSc1nc2ccc(Br)cc2[nH]1	2	5	1	0	-12	-2	i	1
CCCCN1C(=O)C(O)(CC(=O)c2c(C)coc2C)c2ccccc21 (stereo unspecified)	-12	16	8	6	nt	1	i	-7
COc1ccc(C2/C(=C(\O)c3ccc4c(c3)OCCO4)C(=O)C(=O)N2CCCn2ccnc2)cc1 (stereo unspecified)	-5	-4	-3	2	-6	-6	i	6
c1ccc2[nH]c(-c3ccncc3)nc2c1	0	-3	3	1	nt	-1&-1	i	10&-6
O=C(O)Cc1ccc(C(=O)c2cccs2)s1	-4	2	-8	1	-4	-3	i	5
O=C(OCC(=O)C12CC3CC(CC(C3)C1)C2)c1cccnc1Cl	nt	-12	6	8	nt	0	i	8
CSc1ccc(CN(C)C(=O)C(c2ccccc2)c2ccccc2)cc1	20	-4	-4	-4	-6	-11	i	1
Cc1cc(Cl)ccc1OCCCC(=O)Nc1ccc(S(=O)(=O)Nc2ncccn2)cc1	1	nt	0	-2	-31	13	i	10
CCCCN1CC(COCc2ccccc2)Oc2cccc(F)c2S1(=O)=O (stereo unspecified)	2	nt	0	-7	-21	nt	nt	nt
O=C(O)c1cccc(N/N=C/c2cccc3ccccc23)c1	?	11	3	5	-36	-4	i	2
Cc1ccc(NC(=O)CSc2nnc(C)c(=O)n2N)cc1Cl	-9	-10	3	2	-24	-8	i	4
O=C(Oc1cc2oc(=O)cc(-c3ccccc3)c2cc1Cl)C1CCCCC1	nt	-2	-13	-11	-15	16	i	-5
CC1Oc2ccccc2N(CC(=O)NC2CC2)C1=O (stereo unspecified)	4	-4	3	5	-20	-2	i	-2
Cc1nnc(N2CCOCC2)c2nn(-c3cccc(Cl)c3)c(C)c12	4	16	-26	7	-12	1	i	-2
CCOC(=O)N1CCN(c2c(F)cc3[nH]c(=S)[nH]c3c2Br)CC1	42	nt	-5	-16	nt	-4	i	2
COC(=O)c1c(-c2ccc(C(C)(C)C)cc2)csc1NC(=O)C1C2CCC(O2)C1C(=O)O (stereo unspecified)	2	-15	4	7	-10	-10	i	-16
COc1cccc(C2c3[nH]c4ccccc4c3C[C@H]3C(=O)N(c4ccccc4C(=O)N4CCC(C(=O)O)CC4)C(=O)N23)c1 (stereo partly specified)	nt	-11	-5	-2	-2	6	i	-3
O=C1c2ccccc2S(=O)(=O)c2cc(C(=O)N3CCN(C(=O)c4ccccc4)CC3)ccc21	-14	1	-3	-2	-5	nt	i	nt
COC(=O)Nc1nnc(CC(=O)Nc2ccccc2C)s1	-137	-7	-2	2	-7	3	i	-7
Cn1c(-c2csc(-c3ccccc3)n2)n[nH]c1=S	-89	5	-2	0	-22	2	i	-8
CC(=O)Oc1ccccc1/C=C/c1nc2ccccc2c(=O)o1	24	0	-6	0	-19	16	i	0
COc1ccccc1NC(=O)c1ccc(S(=O)(=O)N2CCC(C)CC2)cc1	-10	10	0	-3	-6	-2	i	14
COc1ccc(C(=O)COC(=O)Cn2nnc3ccccc32)cc1Br	i	-14	5	3	-8	-9	i	-6
COc1cccc(Cn2c3ccc(NC(=O)Cc4cc(OC)ccc4OC)cc3c(=O)n2C)c1	3	nt	-5	-4	-15	nt	nt	nt
CCOC(=O)c1c(NC(=O)COC(=O)Cn2cnc3ccccc32)sc2c1CCC(C)C2 (stereo unspecified)	nt	-6	2	1	nt	-1	nt	-11
O=C(NC1CCCC1)c1ccc(Br)s1	nt	-8	-1	-2	nt	-2	i	8
CCCCCCCCn1ccc(=N)cc1	21	25	6	-24	-3	-12	i	-3
NNC(=O)c1cc(Br)cs1	-9	-1	-2	2	nt	2	i	1
O=C(NCc1ccco1)C1CCCN(S(=O)(=O)c2cccc3nsnc23)C1 (stereo unspecified)	nt	-6	-7	-1	-16	9	i	-1
CNc1ccc(/C=C2\CSc3ccccc3C2=O)cc1[N+](=O)[O-]	29	39	14	-12	nt	2	i	-1
COc1ccc(-c2nnn(CC(=O)NC3CCCc4ccccc43)n2)cc1OC (stereo unspecified)	30	-1	0	-1	-3	-12	i	1
OCC1OC(n2cnc3c(SCc4ccccc4)nc(F)nc32)C(O)C1O (stereo unspecified)	-28	nt	3	2	-10	nt	nt	nt
O=C(CCc1c[nH]c2ccccc12)OCc1cccc([N+](=O)[O-])c1	-4	5	4	3	2	-14	i	-1
O=C(NC1CC1)c1ccc2c(c1)ncn2C1CCCC1	nt	6	2	4	-12	-4	i	-4
O=C(OC1CCOC1=O)c1cc(S(=O)(=O)N2CCOCC2)c(Cl)cc1Cl (stereo unspecified)	4	nt	1	1	-3	nt	nt	nt
CCC(C)(C)n1nnnc1C(c1cccnc1)N1CCCc2ccccc21 (stereo unspecified)	nt	-7	-5	-1	-16	-5	i	-6

(cont.)
SMILES	Env fusion inh	CSC inhib	MT1-MMP act inh	MT1-MMP act inh RFP	UUG fidelity	eIF4H FP inh	Rce1 inh	PABP FP inh
CCN1C(=O)c2ccccc2S(=O)c2ccc(C(=O)NC3CC3)cc21 (stereo unspecified)	9	-11	1	2	-14	11	i	28
O=C(Nc1cccc(NC(=O)c2cccnc2)c1)c1ccccc1	21	-5	-3	-4	-12	-11	i	5
COc1cccc(C(=O)NCCS(=O)(=O)N2CCCC(C)C2)c1 (stereo unspecified)	-2	nt	1	5	3	nt	nt	nt
COc1ccc(S(=O)(=O)Nc2ccccc2C(=O)N2CCOCC2)cc1F	13	-4	0	2	-1	3	i	15
COC(=O)Cn1c(=O)sc2ccccc21	4	-11	2	-1	-19	7	i	-15
Cc1ccc(-n2ncc3c2CC(C)(C)CC3NC(=O)CCc2c(C)noc2C)cc1 (stereo unspecified)	9	-11	0	-3	-19	2	i	-10
CC1CCCCC12NC(=O)N(CC(=O)N(C)Cc1nc3ccccc3c(=O)[nH]1)C2=O (stereo unspecified)	nt	2	2	5	-18	nt	nt	nt
COc1ccc(OC)c(NS(=O)(=O)c2c(C(=O)N3CCCCCC3)c(C)n(C)c2C)c1	4	-1	-3	-1	-23	-6	i	-6
COc1nc(C)ccc1-c1noc(-c2cccs2)n1	-104	3	-3	0	528*	2	i	-3
COc1cccc(C(=O)Nc2nc3c(c(=O)[nH]2)CCCC3)c1	-11	7	2	1	-10	-1	i	5
C/C(=N/NC(=O)c1cccs1)c1cccs1	-42	-10	-3	1	-8	2	i	-6
CCOc1ccc(S(=O)(=O)N2CCC(C(=O)N3CCCCCC3)CC2)cc1Cl	1	-5	2	-11	8	9	i	17
CC1CN(Cc2nc3c(c(=O)n(C)c(=O)n3C)n2CC(=O)c2ccccc2)CC(C)O1 (stereo unspecified)	-5	1	-1	0	-18	3	i	4
Cc1ccccc1S(=O)(=O)N(C)C[C@@H]1OCc2cnnn2CCCC(=O)N([C@H](C)CO)C[C@H]1C	-7	nt	4	5	-16&2	nt	nt	nt
COc1cc(OC)cc(-c2c(C#Cc3ccsc3)c3cc(-c4ccc(N(C)C)nc4)ccc3n2C)c1	7	10	-3	2	-5	nt	nt	nt
CC1CCCC(NC(=O)CCNC(=O)c2ccc(Cl)cc2)C1C (stereo unspecified)	8	6	-1	-4	nt	nt	i	nt
COc1ccccc1OCCNC(=O)C(CCSC)NS(=O)(=O)c1ccccc1F (stereo unspecified)	-4	2	-2	2	15	nt	i	nt
CCN1CCN(C(=O)c2ccc3nc(-c4ccccc4)c(-c4ccccc4)nc3c2)CC1	0	-3	-2	-2	-8	1	i	7

Just Rce1 inh, MT1-MMP act inh and Env fusion inh, for some of the entries so far:
smiles	Rce1 inh	MT1-MMP act inh	Env fusion inh
COc1ccc([C@@H]2[C@@H]3C(=O)N(C(C)(C)C)C(=O)[C@@H]3[C@]3(C)C(=O)N(c4ccc(C(F)(F)F)cc4)C(=O)N23)cc1	i	6	66*
Cc1cnc(NC(=O)CC(C)c2ccccc2)s1 (stereo unspecified)	i	-6	-133

High-throughput results: PubChem BioAssay, several laboratories
